Yeast UUG start: modulators of start codon recognition fidelity in yeast; activity score, % at 18.7 µM; AID 602363; 350,000 tested, 0.13% active; S. cerevisiae UUG-firefly luciferase reporter, luminescence/redox ratio;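 active = replicate mean at a twofold rise or more, about +100% in these data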;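 note: firefly luciferase made from a UUG start codon reports start codon fidelity; reporter light over untreated wells divided by growth signal over untreated wells; some hits fall short of that in this replicate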
MT1-MMP act inh: blocks activation of human MT1-MMP | P50281 | 360,000 tested, 0.061% active | GFP/RFP ratio change, % at 20 µM | HT1080 RFP-PRO-GFP cells, GFP/RFP ratio fluorescence, overnight; percent of plate control window, DMSO zero;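 active = GFP/RFP ratio change of at least 30% with cell ATP level not reduced by more than half and red fluorescence within 50% of control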; note: strong numbers were not always called active
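Test system: HT1080 RFP-PRO-GFP cells; Benchmarks: DMSO and RFP-L50D-GFP cell wells; Timing: cells overnight before dosing, compound overnight, 37 °C, 5% CO2; Compound: one 20 µM compound dose with 1% DMSO; Read-out: GFP/RFP fluorescence ratio.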
HIV Env fusion: inhibitors of HIV Env-mediated cell fusion; 360,000 tested, 1.1% active; inhibition, % at 12.3 µM; HeLa-JRFL Env/CEM21 cell fusion, luciferase;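 active = mean replicate inhibition score of at least 50 and every replicate individually at or above 50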;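 note: 0% = plate neutral controls and 100% = maraviroc near 300 nM; one replicate is shown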
PABP FP inh: PABP-poly(A) binding inhibition | P11940 | PABP-poly(A) RNA binding, fluorescence polarization | inhibition, % at 35 µM | 290,000 tested, 1% active;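 active = 50% or more with normal probe brightness, or confirmed in later tests; about a fifth of its hits are not listed in these tables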;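 note: calls also rest on retests at 20 µM and on dose response follow-up; controls were probe without protein and protein plus probe with vehicle; some compounds called inactive have numbers as strong as hits; many hits fall short of the cut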
Target sequence (P11940 whole entry, looked up): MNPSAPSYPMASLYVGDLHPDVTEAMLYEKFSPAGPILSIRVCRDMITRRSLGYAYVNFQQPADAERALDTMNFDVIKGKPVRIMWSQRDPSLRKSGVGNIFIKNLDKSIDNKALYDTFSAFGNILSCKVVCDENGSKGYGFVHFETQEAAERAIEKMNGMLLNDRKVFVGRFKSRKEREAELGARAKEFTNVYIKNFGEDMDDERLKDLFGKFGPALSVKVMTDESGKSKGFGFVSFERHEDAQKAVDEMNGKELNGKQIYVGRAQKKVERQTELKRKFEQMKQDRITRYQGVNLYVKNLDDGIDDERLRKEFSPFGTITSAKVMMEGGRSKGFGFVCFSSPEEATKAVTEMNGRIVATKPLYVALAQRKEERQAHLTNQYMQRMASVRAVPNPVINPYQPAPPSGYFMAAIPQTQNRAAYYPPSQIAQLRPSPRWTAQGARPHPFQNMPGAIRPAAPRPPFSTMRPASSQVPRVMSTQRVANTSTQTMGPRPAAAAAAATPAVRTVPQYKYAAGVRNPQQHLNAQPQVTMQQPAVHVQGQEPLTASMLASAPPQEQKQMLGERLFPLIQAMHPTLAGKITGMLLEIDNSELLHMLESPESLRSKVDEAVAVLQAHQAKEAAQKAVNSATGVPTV
Rce1 inh: inhibitors of yeast Ras-converting enzyme; yeast membranes, quenched prenylated peptide cleavage fluorescence; Q03530; 290,000 tested, 0.27% active; calls only;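 active = fall in fluorescence gain of 50% or more versus controls, with final raw signal at or below 3038400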;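 note: plate controls were neutral control wells for no effect and wells lacking membranes for full effect; tested at 10 µM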
CSC inhib: cancer stem cell inhibition. cancer stem cell-like cells viability, luminescence. inhibition, % at 7.5 µM. 300,000 tested, 1.1% active;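 active = mean at 75% or more and at least half the replicates too; tested in HMLE shEcad cells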;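 note: 0% = median of negative and 100% = median of positive control wells; the first replicate is given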
eIF4H inh: inhibitors of RNA binding by human eIF4H. AID 2012. eIF4H fluorescence polarization binding assay. 290,000 tested, 0.94% active. inhibition, % at 35 µM. Q15056;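 active = 50% or more with normal probe brightness, or confirmed in later tests; about a fifth of its hits are not listed in these tables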;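 note: calls also rest on retests at 20 µM and on dose response follow-up; 0% = protein and probe with vehicle and 100% = probe without protein; strong numbers were not always called active; many hits fall short of the cut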
MT1-MMP act inh RFP: also measured in MT1-MMP act inh; calls as there; RFP signal change, %; measured here: RFP expression control read;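 0 = vehicle wells; hits needed this value within 50% of zero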
* = called active by the depositor; i = inactive; . = no result given; + = active, no number; & = joins results of further samples.

SMILES | Yeast UUG start | MT1-MMP act inh | MT1-MMP act inh RFP | HIV Env fusion | PABP FP inh | Rce1 inh | CSC inhib | eIF4H inh
COc1ccccc1N1CCN(CCCN=C2CC(=O)N(C)C(=O)N2C)CC1 | 8 | 5 | -2 | 10 | . | . | . | .
C=CC[n+]1ccc(/C=C2\C=Cc3cc(C)ccc3N2CC)c2ccccc21 | -12 | 61* | 8.3* | . | -14 | . | . | -8
CCN(CC)CCOC(=O)c1ccc(N)cc1 | -12 | 1 | 1 | -6 | 10 | i | -2 | -2
COc1ccc(C2CNC(=O)C2)cc1OC1CCCC1 (configuration not stated) | 9 | -2 | 3 | 6 | -2&-3 | i | -5 | -3&-2
Cc1c(C(=O)O)c(O)cc2c1C(=O)c1c(O)c([C@@H]3O[C@H](CO)[C@@H](O)[C@H](O)[C@H]3O)c(O)c(O)c1C2=O | 13 | 50* | 24* | 14 | . | . | 12 | .
O=C(O)CCC(=O)c1ccc(-c2ccccc2)cc1 | -8 | 3 | 5 | . | -1 | + | -12 | -4
CN(C)CCC[C@]1(c2ccc(F)cc2)OCc2cc(C#N)ccc21 | -7 | -2 | 4 | 12 | -3 | i | -6 | -4
COc1ccc(-c2cc(=O)c3c(O)cc(O[C@@H]4O[C@H](CO[C@@H]5O[C@@H](C)[C@H](O)[C@@H](O)[C@H]5O)[C@@H](O)[C@H](O)[C@H]4O)cc3o2)cc1O | -2 | 5 | 3 | 17 | -11 | i | 2 | -4
CCCCNc1ccc(C(=O)OCCN(C)C)cc1 | -21 | -3 | 1 | 14 | -1 | i | 42 | 11
CCOC(=O)[C@H](CCc1ccccc1)N[C@@H](C)C(=O)N1Cc2ccccc2C[C@H]1C(=O)O | 4 | -2 | 5 | -2 | . | i | -1 | .
C/C=C/C(=O)N(CC)c1ccccc1C | -7 | 1 | 6 | -40 | 7 | . | . | -12
CC1Cc2ccccc2N1NC(=O)c1ccc(Cl)c(S(N)(=O)=O)c1 (configuration not stated) | -12 | 4 | 5 | . | 7 | i | . | -3
CCC(NC(C)C)C(O)c1ccc(O)c2[nH]c(=O)ccc12 (configuration not stated) | -16 | 0 | 0 | . | 0 | i | -13 | 1
CC(C)=CCOc1c2ccoc2cc2oc(=O)ccc12 | -13 | 2 | 2 | . | -3 | i | -10 | -11
Cc1cccc2c1NC(=O)C2(c1ccc(O)cc1)c1ccc(O)cc1 | -4 | 10 | -10 | . | -19 | i | . | -7
CC1(C)C2CC[C@]3(C)[C@H](C(=O)C=C4[C@@H]5C[C@@](C)(C(=O)O)CC[C@]5(C)CC[C@]43C)[C@@]2(C)CC[C@@H]1O[C@H]1O[C@H](C(=O)O)[C@@H](O)[C@H](O)[C@H]1O[C@@H]1O[C@H](C(=O)O)[C@@H](O)[C@H](O)[C@H]1O (some centres not stated) | 19 | 5 | 5 | 0 | . | . | . | .
Cc1cncn1CCc1nc2c3ccccc3nc(SCC(=O)Nc3cccc(Cl)c3)n2n1 | . | 3 | -4 | -7 | -4 | i | 39 | -11
N[C@@H](Cc1c[nH]c2ccc(O)cc12)C(=O)O | -18 | 2 | 4 | 22 | . | . | -6 | .
N#Cc1ccc(C(c2ccc(C#N)cc2)n2cncn2)cc1 | -25 | 2 | 3 | 8 | -2 | i | . | 2
C/C=C(/C)C(=O)OC(C)(C)[C@@H]1Cc2c(ccc3ccc(=O)oc23)O1 | 5 | 4 | -6 | 1 | 1 | i | 7 | -7
COc1cc(-c2oc3cc(O)cc(O)c3c(=O)c2O[C@@H]2O[C@H](COC3O[C@@H](C)[C@H](O)[C@@H](O)[C@H]3O)[C@@H](O)[C@H](O)[C@H]2O)ccc1O (some centres not stated) | -12 | 4 | 3 | -12 | . | . | -19 | .
CCCc1nc(C(C)(C)O)c(C(=O)O)n1Cc1ccc(-c2ccccc2-c2nn[nH]n2)cc1 | . | . | . | . | 14 | i | -8 | -4
COc1ccc(-c2cc(=O)c3c(O)cc(OC4OC(COC5OC(C)C(O)C(O)C5O)C(O)C(O)C4O)cc3o2)cc1O (configuration not stated) | -19 | 3 | 3 | . | . | i | -9 | .
C[N+]1(C)CCC(=C(c2ccccc2)c2ccccc2)CC1 | -32 | -1 | 0 | -10 | . | . | -8 | .
C1COC(NC(C2CC2)C2CC2)=N1 | -15 | 3 | -1 | 6 | 8 | i | 1 | -2
Cc1ccc(N(CC2=NCCN2)c2cccc(O)c2)cc1 | -6&-9&-3 | -3&-6&-2 | 1&0&3 | -12&7 | 11&40 | i | -12&-7 | -5&3
CNCCCN1c2ccccc2CCc2ccccc21 | -4&1 | -10 | -5 | -1 | 6 | i | -1 | -1
CC1(C)O[C@H]2CC(=O)OC[C@@]23C1CC(=O)[C@]1(C)C3CC[C@@]2(C)[C@H](c3ccoc3)OC(=O)[C@H]3O[C@]321 (some centres not stated) | 7 | -1 | 1 | . | . | . | -9 | .
Oc1ccc(C2CNCCc3c2cc(O)c(O)c3Cl)cc1 (configuration not stated) | -10&-12 | -1&0 | 3&1 | 10&-15 | . | i | 4&7 | .
NOCC(=O)O | -16 | -8 | -1 | -28 | . | . | -16 | .

Part of the list above in order of length of the SMILES, highest first:
SMILES | Yeast UUG start | MT1-MMP act inh | MT1-MMP act inh RFP | HIV Env fusion | PABP FP inh | Rce1 inh | CSC inhib | eIF4H inh
CC1(C)O[C@H]2CC(=O)OC[C@@]23C1CC(=O)[C@]1(C)C3CC[C@@]2(C)[C@H](c3ccoc3)OC(=O)[C@H]3O[C@]321 (some centres not stated) | 7 | -1 | 1 | . | . | . | -9 | .
COc1ccc(-c2cc(=O)c3c(O)cc(OC4OC(COC5OC(C)C(O)C(O)C5O)C(O)C(O)C4O)cc3o2)cc1O (configuration not stated) | -19 | 3 | 3 | . | . | i | -9 | .
C/C=C(/C)C(=O)OC(C)(C)[C@@H]1Cc2c(ccc3ccc(=O)oc23)O1 | 5 | 4 | -6 | 1 | 1 | i | 7 | -7
Cc1cncn1CCc1nc2c3ccccc3nc(SCC(=O)Nc3cccc(Cl)c3)n2n1 | . | 3 | -4 | -7 | -4 | i | 39 | -11
C[N+]1(C)CCC(=C(c2ccccc2)c2ccccc2)CC1 | -32 | -1 | 0 | -10 | . | . | -8 | .
N#Cc1ccc(C(c2ccc(C#N)cc2)n2cncn2)cc1 | -25 | 2 | 3 | 8 | -2 | i | . | 2
N[C@@H](Cc1c[nH]c2ccc(O)cc12)C(=O)O | -18 | 2 | 4 | 22 | . | . | -6 | .
Oc1ccc(C2CNCCc3c2cc(O)c(O)c3Cl)cc1 (configuration not stated) | -10&-12 | -1&0 | 3&1 | 10&-15 | . | i | 4&7 | .
CNCCCN1c2ccccc2CCc2ccccc21 | -4&1 | -10 | -5 | -1 | 6 | i | -1 | -1
C1COC(NC(C2CC2)C2CC2)=N1 | -15 | 3 | -1 | 6 | 8 | i | 1 | -2
NOCC(=O)O | -16 | -8 | -1 | -28 | . | . | -16 | .

The results go on:
SMILES | Yeast UUG start | MT1-MMP act inh | MT1-MMP act inh RFP | HIV Env fusion | PABP FP inh | Rce1 inh | CSC inhib | eIF4H inh
CCCCNc1ccc(C(=O)OCCOCCOCCOCCOCCOCCOCCOCCOCCOC)cc1 | 6 | 2 | -9 | 4 | . | . | -5 | .
CC12CCC(=O)C=C1CCC1C2CCC2(C)C1CCC2(O)C(=O)CO (configuration not stated) | -14 | 3 | -4 | -254 | . | i | -11 | .
CN(C)CCCC1(c2ccc(F)cc2)OCc2cc(C#N)ccc21 (configuration not stated) | -7 | -2 | 2 | -9 | -3&8 | i | 1 | 2&7
CCCCCC(=O)O[C@]1(C(C)=O)CC[C@H]2[C@@H]3CCC4=CC(=O)CC[C@]4(C)[C@H]3CC[C@@]21C | -18 | -1 | -29 | -36 | -8 | i | 69 | -9
COc1cc([C@@H]2Oc3cc(C4Oc5cc(O)cc(O)c5C(=O)[C@H]4O)ccc3O[C@H]2CO)ccc1O (some centres not stated) | -25 | -4 | -4 | . | . | . | -11 | .
COC(=O)C1=CO[C@@H](O[C@@H]2O[C@H](CO)[C@@H](O)[C@H](O)[C@H]2O)C2C1C[C@H](O)[C@@H]2C (some centres not stated) | -29 | -5 | 5 | -11 | . | . | -13 | .
O=C(O)c1cccnc1Nc1cccc(C(F)(F)F)c1 | -3 | 6 | 5 | . | 7 | i | -7 | 5
CCc1ccc(CCOc2ccc(CC3SC(=O)NC3=O)cc2)nc1 (configuration not stated) | -3 | 0 | -8 | -10 | . | i | -8 | .
COc1ccc(C[C@H]2COC(=O)[C@@H]2Cc2ccc(OC3OC(CO)C(O)C(O)C3O)c(OC)c2)cc1OC (some centres not stated) | 3 | 14 | -25 | . | 2 | i | 0 | -10
Cc1ccc(=O)n(-c2ccccc2)c1 | -12 | 1 | -2 | . | . | i | -11 | .

3 structures out of the list, arranged by formula weight, ascending.
SMILES | Yeast UUG start | MT1-MMP act inh | MT1-MMP act inh RFP | HIV Env fusion | PABP FP inh | Rce1 inh | CSC inhib | eIF4H inh
Cc1ccc(=O)n(-c2ccccc2)c1 | -12 | 1 | -2 | . | . | i | -11 | .
COc1ccc(-c2cc(=O)c3c(O)cc(OC4OC(COC5OC(C)C(O)C(O)C5O)C(O)C(O)C4O)cc3o2)cc1O (configuration not stated) | -19 | 3 | 3 | . | . | i | -9 | .
COc1cc(-c2oc3cc(O)cc(O)c3c(=O)c2O[C@@H]2O[C@H](COC3O[C@@H](C)[C@H](O)[C@@H](O)[C@H]3O)[C@@H](O)[C@H](O)[C@H]2O)ccc1O (some centres not stated) | -12 | 4 | 3 | -12 | . | . | -19 | .

Compound activity deposited in PubChem BioAssay by several laboratories.

These rows are one share of the data, so the mix of outcomes need not match the whole.
